Screening data: PubChem BioAssay, several laboratories
T cruzi inh: inhibitors of intracellular T. cruzi growth, primary screen, luminescence, NIH3T3 host cells. T. cruzi beta-gal in NIH3T3, 90 h. inhibition, % (no concentration beside the values). actives 1.4% (n = 300,000). AID 1885, 2009;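 active = mean inhibition across valid replicates above about 55%, limit read from the data; inconclusive = mean below that limit but half or more replicates reach it; inactive = mean below it, under half of replicates reach it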;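 also: signal also drops with host cell toxicity which is not excluded here; 0% = plate median of DMSO wells and 100% = zero luminescence signal; higher percent means less beta-gal luminescence so fewer parasites; stock transfer was 50 nL into about 50 µL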
Bfl-1 A1 inh: caspase 3/7 activation in MEF A1-2A-BIM cells, primary screen, A1 inhibitor project, cell-based, luminescence, HTS. Caspase-Glo 3/7 luminescence, 3 h; percent of clofoctol response, vehicle zero. caspase activation, % (concentration not given with the values). actives 0.066% (n = 330,000);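 active = over half of replicate activation scores above 10%, or exactly half above 10 with the replicate mean above 10; inconclusive = replicate mean below 10 yet half the replicates above 10; inactive = over half of replicates below 10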;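 also: wells of about 30 µL received 50 nL stock; many hits fall short of the cut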
AF4-AF9 inh: inhibitors of AF4 peptide binding to AF9, primary screen, biochemical, AlphaScreen, biotin-AF4 peptide, FLAG-AF9, single point | Protein AF-9 (Homo sapiens), P42568 | inhibition, % at 10 µM | actives 0.47% (n = 350,000);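 active = every replicate reaching a set inhibition limit, whatever the replicate mean, cut at about 25% in these data; inconclusive = mean inhibition reaches that limit but some replicates miss it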;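 also: 0% = plate neutral control median and 100% = total signal loss; the record names both 10 and 1 µM as test concentration; the first replicate is given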
RanGTP-Impb inh: inhibitors of RanGTP-importin-beta interaction, primary screen, biochemical, FRET, CFP-Ran, YFP-importin-beta, homogeneous; actives 1.1% (n = 300,000); inhibition, % (concentration not given with the values); Ran GTPase (GTP-bound) - importin-beta complex; cell-free CFP-Ran/YFP-importin-beta FRET ratio; AID 2216, 2009;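 active = most replicates above 15%; inconclusive = exactly half above 15%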;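 also: 0% = DMSO wells and 100% = Ran loaded with GDP instead of GTP; wells of about 40 µL received 100 nL stock; the first replicate is given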
Beta apoptosis: inhibitors of cytokine-induced beta cell apoptosis, primary screen, luminescence | INS-1E cytokine-induced death, ATP luminescence, 48 h; percent of positive-control rescue, neutral wells zero | actives 0.8% (n = 300,000) | AID 435005, 2010 | protection from apoptosis, % (no concentration beside the values);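 active = all replicates at 75% or more, or half of them and the mean; inconclusive = half reach 75% but not the mean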;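 also: 0% = cytokine-treated negative control wells and 100% = positive control rescue; higher means more ATP so stronger rescue from cytokine killing; wells of about 40 µL received 100 nL stock; the first replicate is given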
LANA-H2A inh: blockers of LANA interaction with H2A/H2B – biochemical, FP readout, HTS, primary screen; Protein LANA1 (Human herpesvirus 8 type P (isolate GK18)), Q9QR71; cell-free LANA-H2A/H2B peptide, fluorescence polarization; inhibition, % (no concentration beside the values); actives 0.6% (n = 320,000); AID 2629, 2010; in the data active = inhibition mostly above about 10%, no sharp cut-off; inactive = mostly below about 6.7%;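 also: stock transfer was 7.5 nL into about 10 µL; 0% = median of vehicle wells and 100% = median of positive control wells; one replicate is shown; the record names a cut of 25% in any replicate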
Target sequence (Q9QR71 whole entry, looked up): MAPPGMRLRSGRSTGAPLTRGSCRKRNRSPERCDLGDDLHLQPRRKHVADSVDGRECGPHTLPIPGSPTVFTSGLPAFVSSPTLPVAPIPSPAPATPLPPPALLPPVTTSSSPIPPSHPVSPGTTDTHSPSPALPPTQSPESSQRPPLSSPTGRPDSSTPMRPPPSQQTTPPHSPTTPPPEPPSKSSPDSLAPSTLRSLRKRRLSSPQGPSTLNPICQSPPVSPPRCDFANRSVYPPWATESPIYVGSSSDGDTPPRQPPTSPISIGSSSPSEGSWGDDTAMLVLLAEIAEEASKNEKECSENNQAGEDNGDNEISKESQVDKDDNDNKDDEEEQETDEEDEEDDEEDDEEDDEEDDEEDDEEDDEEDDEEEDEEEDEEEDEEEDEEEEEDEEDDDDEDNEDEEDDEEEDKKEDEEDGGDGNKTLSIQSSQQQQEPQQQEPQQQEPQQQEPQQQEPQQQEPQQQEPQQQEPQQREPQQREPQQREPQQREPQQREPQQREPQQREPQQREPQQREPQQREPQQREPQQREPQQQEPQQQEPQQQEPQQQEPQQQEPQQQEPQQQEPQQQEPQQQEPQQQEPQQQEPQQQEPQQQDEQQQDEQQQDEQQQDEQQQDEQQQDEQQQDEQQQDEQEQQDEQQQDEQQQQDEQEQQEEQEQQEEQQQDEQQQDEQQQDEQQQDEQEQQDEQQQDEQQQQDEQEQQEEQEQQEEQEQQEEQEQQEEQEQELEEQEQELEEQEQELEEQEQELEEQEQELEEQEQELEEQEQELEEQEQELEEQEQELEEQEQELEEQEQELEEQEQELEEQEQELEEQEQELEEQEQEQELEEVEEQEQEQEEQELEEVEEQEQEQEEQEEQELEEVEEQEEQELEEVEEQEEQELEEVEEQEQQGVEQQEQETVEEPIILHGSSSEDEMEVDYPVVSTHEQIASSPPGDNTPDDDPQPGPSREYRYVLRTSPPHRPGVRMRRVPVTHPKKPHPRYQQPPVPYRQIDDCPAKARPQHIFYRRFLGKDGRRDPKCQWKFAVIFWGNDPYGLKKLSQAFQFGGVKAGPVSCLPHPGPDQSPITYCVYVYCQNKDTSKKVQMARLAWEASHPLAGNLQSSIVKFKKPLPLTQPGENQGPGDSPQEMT
Calb FLC: C. albicans growth inhibition with fluconazole, primary screen, CaCi-2 strain, Alamar Blue fluorescence. growth inhibition, % (no concentration beside the values). C. albicans CaCi-2 (fluconazole-resistant clinical isolate) + fluconazole, 48 h. actives 0.57% (n = 300,000). AID 1979, 2009;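 active = most replicates above 75%; inconclusive = exactly half above 75%; inactive = most below 75%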;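 also: all wells also contain fluconazole at 8 µg/ml as a sub-toxic cotreatment; 0% = median of DMSO wells and 100% = median of geldanamycin control wells; wells of about 8 µL received 7.5 nL stock; the first replicate is given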
Vif A3G: inhibitors of Vif binding to APOBEC3G peptide, primary screen, biochemical, TR-FRET, GST-Vif 1-94, biotin-A3G peptide, dose response retest (AID 1117319). inhibition, %, or IC50 in µM where a hit was titrated. TR-FRET GST-Vif / biotin-A3G peptide binding; higher % means a stronger effect; test concentration not given here; strong numbers were not always called active. actives 0.57% (n = 260,000). Virion infectivity factor (Human immunodeficiency virus type 1 group M subtype B (isolate …;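 active = above the screen mean plus three standard deviations and confirmed in dose response; inconclusive = results disagree or hit not tested in dose response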;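 also: Vif residues 1-94 fused to GST binding biotinylated APOBEC3G peptide 110-148; 0% = full assay without inhibitor and 100% = GST in place of GST-Vif; retest series ran down from 100 µM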
Active calls of the source: *; ? = inconclusive; · = no result given; & = joins results of further samples.

Fields: T cruzi inh, Bfl-1 A1 inh, AF4-AF9 inh, RanGTP-Impb inh, Beta apoptosis, LANA-H2A inh, Calb FLC, Vif A3G
CC(=O)Nc1ccc(S(=O)(=O)Nc2ncccn2)cc1
 : -5, -0.7, ·, 0.3, 0, -3.9, -3, 2%
Cc1ccc(NS(=O)(=O)c2cc(C(=O)NCc3ccncc3)ccc2C)cc1
 : 25, -1.0, -0.2, ?, -4, 0.1, -9, ·
COc1ccc(C(=O)NC2CC2)cc1OC1CCN(Cc2cc(C)cc(C)c2)CC1
 : -2, 1.2, 2.4, 4.9, ·, 3.4, -11, 8%
CCN(CC)C(=O)C1CCCN(C/C=C/c2ccccc2)C1 (stereo not drawn)
 : 45, 0.5, ·, 4.1, 5, 2.1, -18, 6%
CN(CCO)c1nc(N)c2c(N)nc3c(c2c1C#N)CC(=O)N3Cc1cccs1
 : 24, -0.6, -2.1, 0.5, 6, -1.4, 5, -7%
COc1ccccc1NC(=S)NC(=O)c1ccc(Cn2cc(Br)cn2)cc1
 : 10, 0.3, -1.3, 2.6, -3, 4.8, -2, 20%
CCn1nc(C(=O)Nc2nc3ccc(C)cc3s2)c2ccccc2c1=O
 : -9, 0.3, 1.1, ?, 5, -1.0, -3, -6%
CC1CCN(S(=O)(=O)c2cn(CC(=O)N3CCN(c4cccc(C(F)(F)F)c4)CC3)cn2)CC1
 : 4, ·, ·, 4.0, ·, ·, -1, 3%
COc1cc(CNCCNCC(C)O)ccc1OCc1ccc(Cl)nc1 (stereo not drawn)
 : 36, 1.3, 2.1, 2.5, -3, 0.8, -10, ·
CC(=O)c1ccc(OCCn2cnc3ccccc32)cc1
 : -13, 0.0, ·, 4.5, ·, 2.0, ?, ·
COc1cc(-c2noc(C)c2C#CC2(O)CCCCC2)cc(OC)c1OC
 : 12, 0.5, 2.0, 3.0, -5, 1.2, -5, ·
COCCN1CC(O)=C(c2nc3ccccc3c(=O)[nH]2)C1=N
 : -6, -0.2, ·, 1.4, -2, 0.8, -13, 1%
CCC1(c2ccc(F)cc2)NC(=O)NC1=O (stereo not drawn)
 : -14, -0.5, -2.5, -3.1, -2, -2.9, -5, ·
O=C(NCc1nc(-c2ccccc2)no1)c1cccs1
 : -13, -1.4, -13, ?, 4, -5.8, -6, 2%
COc1ccc(-c2cn3cccnc3n2)cc1NC(=O)c1cc(OC)c(OC)c(OC)c1
 : 2, 0.2, -5.0, -1.4, 14, 3.4, -9, 19%
Cc1cccc(C(C)C)c1NC(=O)c1cccnc1
 : 14, 0.1, ·, 3.3, -1, -2.6, -8, 1%
Oc1cccc2c(-c3nn[nH]n3)ccnc12
 : ·, 1.7, -3.4, ·, -16, 4.6, ·, ·
CCN(CC(=O)Nc1cc(C)nn1-c1nc(C)cc(C)n1)Cc1ccccc1
 : 17, 0.4, ·, -2.0, 13, 3.0, 7, 1%
COC(=O)C1=CN(c2ccc(F)cc2)C=C(C(=O)OC)C1c1ccc(O)cc1
 : 1, -0.1, -1.1, 0.6, 2, -5.1, 1, -9%
CN1CCN(NS(=O)(=O)c2ccc(Cl)cc2)CC1
 : -8, 0.2, -1.5, 0.5, 0, -6.7, 4, ·
CC1CCc2nn(CC(=O)N3CCc4ccccc43)cc2C1 (stereo not drawn)
 : 3, 0.1, 4.1, -2.1, -6, -1.0, 1, 0%
CC(C)(C)OC(=O)N/N=C/c1cc(N=Nc2ccccc2)ccc1O
 : -11, -1.4, ·, -3.7, -2, -0.7, -1, -9%
CCOc1c([N+](=O)[O-])cc2c(C)c(C(=O)N3CCN(C)CC3)oc2c1OCC
 : -10, -0.3, 2.3, -0.4, 5, 5.2, 3, 6%
Cc1cccc(OCC(=O)OCC(=O)Nc2ccc(Cl)cn2)c1
 : ·, -0.7, -1.7, ·, -3, 1.2, ·, ·
COc1cc(OC)c(C2N(c3ccccn3)C(=O)C3CCCN32)cc1OC (stereo not drawn)
 : -8, 0.2, ·, -3.0, -9, -2.8, 16, 1%
COC(=O)c1ccccc1NC(=O)COC(=O)CSCC(=O)N1CCOCC1
 : 4, 0.9, ·, -5.2, -9, 1.0, 1, -2%
CN(C)c1cc[n+](CC(=O)Nc2ccc(Cl)c([N+](=O)[O-])c2)cc1
 : -14, 0.3, 2.2, 0.1, 5, 2.3, 26, -1%
O=C(COC(=O)c1cnc(Cl)c(Cl)c1)c1ccc(F)cc1
 : ·, 0.7, 3.3, ·, -8, -0.1, ·, ·
O=C(NCc1nc(-c2ccccc2)no1)c1ccc2c(c1)OCO2
 : 7, 1.2, ·, ?, -3, 2.0, 4, ?
CCc1ccc2nc(Nc3nc(COC)cc(=O)[nH]3)nc(C)c2c1
 : 15, -0.5, -5.7, 0.5, ·, -10, 51, 10%
O=C(C[C@@H]1C/C=C\C[C@H](Cc2ccc(F)cc2)C(=O)OC[C@@H]2CCCN2C1=O)N[C@H](CO)Cc1ccccc1
 : ·, 0.2, 9.2, ·, 1, 3.7, ·, ·
O=C1NCCCc2c1oc1cc(Br)c(O)c(Br)c21
 : 0, -0.6, ·, -4.9, -10, -1.6, 56, 10%
O=C(CSc1nnc(-c2cccs2)o1)N1CCOCC1
 : -9, ·, ·, ?, ·, ·, 5, 2%&1%
CCOc1ccc(Br)cc1S(=O)(=O)NCc1ccc(S(N)(=O)=O)cc1
 : -4, 0.2, 3.3, 0.2, -6, -1.9, -12, 0%
O=C(COC(=O)c1cc(S(=O)(=O)N2CCOCC2)ccc1F)c1ccccc1
 : ·, ?, 2.4, ·, 1, -1.2, ·, ·
COc1cc(NS(=O)(=O)c2ccc(NC(=S)NC(=O)/C=C/c3ccco3)cc2)ncn1
 : -1, ·, -1.3, -0.4, ·, ·, 34, ?
CCCc1cc(C(=O)N(C)CC(=O)Nc2ccc(OCC)c(OCC)c2)sc1C
 : -1, 0.3, -0.6, 4.4, -10, 1.4, -6, 1%
Cc1cc(N2CCOCC2)c(F)cc1C(=O)c1ccccc1
 : 2, 0.0, ·, 0.7, -6, 1.5, 6, -2%
O=C(CN1CCCCCC1)Nc1ccc(S(=O)(=O)N2CCOCC2)cc1
 : -18, -0.6, -1.0, -0.5, 3, -0.7, -9, 3%
CCOc1ccc(N2CC(C(=O)NC3CCCC3)CC2=O)cc1 (stereo not drawn)
 : -7, 0.7, -0.6, 1.0, 7, 2.7, 3, ·
CCCc1c(O)c2ccccc2n(-c2ccccc2)c1=O
 : 4, -1.6, ·, -1.3, -4, -3.5, ?, -7%
O=C(c1cn(Cc2ccccc2)nc1-c1ccc(Cl)cc1)N1CCN(c2ccccn2)CC1
 : ·, -0.4, 4.7, ·, 1, -0.1, ·, ·
COc1ccc2c(C)c(C(=O)N3CCN(Cc4ccccc4)CC3)oc2c1
 : 11, 1.5, 2.1, -0.8, ·, 2.6, 0, ·
CCCNC(=O)C(Cc1ccc(I)cc1)NC(=O)c1ccc2ccccc2n1 (stereo not drawn)
 : ·, -0.8, -0.5, ·, -6, -5.4, ·, ·
COc1ccc(NCC(=O)Nc2ccccc2C#N)cc1Cl
 : 4, 0.0, ·, -0.2, 1, -4.8, 6, 24%
CC(C)c1nnc(SCC(=O)NCc2ccc3c(c2)OCO3)n1C
 : -5, -1.0, ·, -2.3, -2, 2.7, -5, 1%
CCOC(=O)C1=C(c2ccccc2)O/C(=C(/C#N)C(F)(F)F)S1
 : 70*, 3.2, ·, 0.4, 116*, -0.1, 7, 0%
CCC(C)(C)NC(=O)CN(C(=O)c1snc(C(N)=O)c1N)c1ccc(OC)c(OC)c1
 : ·, 1.4, ·, ·, -5, -0.9, ·, 1%
COc1ccccc1NC(=O)CSc1nnc(CNC(=O)COc2ccc(Cl)cc2)o1
 : -7, 1.4, ·, 2.3, ·, -1.0, 1, 19%
O=c1oc(-c2ccc(Cl)c(Cl)c2)nn1-c1ccc(C(F)(F)F)cn1
 : 6, -0.5, -2.1, -0.6, 0, -5.5, 5, 0%

New compounds follow:
Fields: T cruzi inh, Bfl-1 A1 inh, AF4-AF9 inh, RanGTP-Impb inh, Beta apoptosis, LANA-H2A inh, Calb FLC, Vif A3G
COc1ccc(N(CC(=O)N2CCc3ccccc3C2)S(C)(=O)=O)cc1
 : -14, 0.3, ·, 0.4, -6, -1.5, 8, 2%
Cc1ccc(C(=O)CSc2nnc(-c3ccccc3)o2)cc1
 : -4, 0.0, ·, -1.4, 1, -1.0, 20, 6%
COC(=O)c1sccc1NC(=O)CC1C(=O)NCCN1C(=O)Nc1cc(Cl)ccc1OC (stereo not drawn)
 : -2, -0.4, 1.9, -1.0, -6, -0.1, -4, ·
CN1CCc2c(sc3c2c(=O)n(-c2ccccc2)c2nnc(SCc4ccc(Cl)cc4)n32)C1
 : 61*, 0.0, ·, 0.9, 2, -0.1, -1, 8%
O=C(O)c1cc(S(=O)(=O)N(Cc2ccccc2)c2ccccc2)ccc1Cl
 : -7, 0.3, 0.7, 2.1, -3, 3.6, 3, -1%
CNc1nc(N)c([N+](=O)[O-])c(NC2CCCCC2)n1
 : -9, -0.9, 1.8, -1.0, -5, 2.6, 4, -3%
Cc1noc(C)c1S(=O)(=O)N1CCCC(C(=O)NCCc2ccc(Cl)cc2)C1 (stereo not drawn)
 : 35, 0.1, ·, 0.9, -7, 10, -6, -4%
COc1cccc(CNc2ccc([N+](=O)[O-])c(NCC(=O)O)n2)c1
 : -23, 0.2, 0.1, 3.8, 6, 3.0, -3, 2%
O=c1cc(CN2CCN(Cc3ccccc3)CC2)c2cc(O)ccc2o1
 : 52, -0.5, -15, 1.3, 5, -6.1, -4, 2%
Cc1cccc(C)c1OCc1nnc(SCC(=O)NCCc2ccccc2)o1
 : 6, 0.1, ·, 8.6, -5, -1.3, -6, 27%
Cc1ccccc1N(CC(=O)NCC1CCCO1)C(=O)CCC(=O)Nc1nccs1 (stereo not drawn)
 : -5, 1.2, 1.0, 14, 2, 3.6, 1, ·
CCOC(=O)/C(=N\Nc1ccccc1Cl)N1CCN(Cc2ccccc2)CC1
 : 36, -1.3, 11, -0.6, -3, -4.0, 0, 4%
Cc1ccccc1OCC(=O)N=Nc1c(O)n(C)c2ccccc12
 : 5, -1.1, 3.8, -6.9, 14, 4.1, -3, -2%
CCn1cc(S(=O)(=O)NCCc2ccccc2OC)cn1
 : -13, -0.8, -1.5, 11, 5, 0.4, -5, 0%
COc1ccc(Cc2nc(-c3ccc(Br)o3)no2)cc1OC
 : 9, -0.7, 2.9, ?, -2, -5.0, 9, 2%

An unsorted share of the library; overall some 4.3% were active at least once.
